# Bioassay records deposited in PubChem by several laboratories.
# A1 inh: inhibitors of the anti-apoptotic protein A1, read as caspase activation | MEF A1-2A-BIM cells, Caspase-Glo 3/7 luminescence, 3 h; percent of clofoctol response, vehicle zero | hit rate 0.066% among 330,000 | AID 2462 | caspase activation, % (no concentration beside the values);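 active means over half of replicate activation scores above 10%, or exactly half above 10 with the replicate mean above 10; inconclusive means replicate mean below 10 yet half the replicates above 10; inactive means over half of replicates below 10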;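 further: wells of about 30 µL received 50 nL stock; many hits fall short of the cut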
# UCH37 inh: human UCH37 deubiquitinating enzyme inhibition; Q9Y5K5; purified proteasome/UCH37, Ub-AMC cleavage fluorescence; inhibition, % (concentration not given with the values); hit rate 0.33% among 330,000;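 active means mean of two replicates above 20%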;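 further: 0% = compound-free wells with enzyme and 100% = wells lacking proteasome; stock transfer was 100 nL into about 20 µL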
# Target sequence (Q9Y5K5 whole entry, looked up): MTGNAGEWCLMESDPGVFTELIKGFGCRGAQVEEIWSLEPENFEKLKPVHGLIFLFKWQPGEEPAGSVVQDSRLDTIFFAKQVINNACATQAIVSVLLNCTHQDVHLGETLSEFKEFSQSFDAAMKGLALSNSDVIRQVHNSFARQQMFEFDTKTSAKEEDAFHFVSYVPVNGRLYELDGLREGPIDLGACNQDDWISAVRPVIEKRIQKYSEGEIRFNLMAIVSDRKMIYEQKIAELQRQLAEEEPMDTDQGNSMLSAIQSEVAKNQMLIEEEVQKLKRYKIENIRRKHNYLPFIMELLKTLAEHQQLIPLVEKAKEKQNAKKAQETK
#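 Material: Human UCH37 enzyme supplied as purified proteasome complex | Schedule: 30 min preincubation with enzyme, 25 min cleavage at room temperature | Detection: AMC fluorescence 355/460 nm | Measure: % inhibition of Ub-AMC cleavage fluorescence | Controls: Wells without proteasome as full block, compound-free enzyme plus substrate as uninhibited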
# MLL AF4-AF9 inh: blocks AF4 peptide binding to human AF9. hit rate 0.47% among 350,000. inhibition, % at 10 µM. AlphaScreen, biotin-AF4 peptide binding to FLAG-AF9;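 active means every replicate reaching a set inhibition limit, whatever the replicate mean, cut at about 25% in these data; inconclusive means mean inhibition reaches that limit but some replicates miss it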;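 further: 0% = plate neutral control median and 100% = total signal loss; the record names both 10 and 1 µM as test concentration; the first replicate is given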
# Target sequence (P42568 whole entry, looked up): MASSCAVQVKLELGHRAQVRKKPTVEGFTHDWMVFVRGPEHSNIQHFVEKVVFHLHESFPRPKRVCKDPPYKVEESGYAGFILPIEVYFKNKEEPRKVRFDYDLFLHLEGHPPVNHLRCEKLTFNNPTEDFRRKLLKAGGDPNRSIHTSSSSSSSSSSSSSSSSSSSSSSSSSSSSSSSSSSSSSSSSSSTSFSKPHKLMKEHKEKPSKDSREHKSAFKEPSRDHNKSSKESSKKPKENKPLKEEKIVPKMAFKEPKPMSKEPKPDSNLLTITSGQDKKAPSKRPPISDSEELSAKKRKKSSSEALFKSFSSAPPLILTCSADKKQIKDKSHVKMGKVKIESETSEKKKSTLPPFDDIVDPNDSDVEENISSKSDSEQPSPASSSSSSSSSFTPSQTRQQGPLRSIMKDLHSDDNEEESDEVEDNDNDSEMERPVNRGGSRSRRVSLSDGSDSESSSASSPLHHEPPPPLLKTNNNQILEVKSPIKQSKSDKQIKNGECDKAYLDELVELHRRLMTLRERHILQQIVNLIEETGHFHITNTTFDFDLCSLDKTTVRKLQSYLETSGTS
# FGF22 binding: shifts melting point of recombinant human FGF22; hit rate 1.5% among 340,000; Q9HCT0; calls only at 9.99 µM; recombinant FGF22 thermal shift, SYPRO orange fluorescence; percent of sucrose octasulfate shift, DMSO zero; AID 651658;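 active means melting point raised past a set limit in the mean and every replicate; inconclusive means no clear call; three in four hits are not shown here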
# Target sequence (Q9HCT0 whole entry, looked up): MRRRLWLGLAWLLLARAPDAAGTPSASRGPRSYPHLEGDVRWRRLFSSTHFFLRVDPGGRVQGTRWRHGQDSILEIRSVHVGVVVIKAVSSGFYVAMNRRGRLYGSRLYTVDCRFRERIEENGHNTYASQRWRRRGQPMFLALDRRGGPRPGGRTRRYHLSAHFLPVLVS
# T cruzi repl: T. cruzi replication inhibition. T. cruzi beta-gal in NIH3T3, luminescence, 90 h. inhibition, % (no concentration beside the values). hit rate 1.4% among 300,000;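 active means mean inhibition across valid replicates above about 55%, limit read from the data; inconclusive means mean below that limit but half or more replicates reach it; inactive means mean below it, under half of replicates reach it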;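 further: signal also drops with host cell toxicity which is not excluded here; 0% = plate median of DMSO wells and 100% = zero luminescence signal; higher percent means less beta-gal luminescence so fewer parasites; stock transfer was 50 nL into about 50 µL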
# E coli growth: inhibitors of Escherichia coli growth | OD600, 23 h; active compounds read low | OD600 absorbance (no concentration beside the values) | hit rate 0.21% among 330,000 | AID 1053175;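 active means OD600 absorbance below the run mean of sample wells minus 3.6 SD, in any replicate, cut at about 0.56 in these data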;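 further: stock transfer was 300 nL into about 60 µL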
# rRNA inh HTS: selective bacterial rRNA inhibition in E. coli | E. coli WT GFP vs humanized-ribosome RFP mutants, fluorescence, 24 h; active compounds read low; DMSO median 0, no signal -100 | GFP signal change (wild-type ribosome), % (concentration not given with the values) | hit rate 1.6% among 350,000 | AID 720706;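 active means significant combined selectivity score with lowered wild-type GFP, culture density cut under 30%, mutant RFP and density less affected; inactive means any of these conditions unmet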; further: one replicate is shown; some compounds called inactive have numbers as strong as hits
# Beta apoptosis: blocks beta cell apoptosis; INS-1E cytokine-induced death, ATP luminescence, 48 h; percent of positive-control rescue, neutral wells zero; protection from apoptosis, % (no concentration beside the values); hit rate 0.8% among 300,000; AID 435005;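 active means all replicates at 75% or more, or half of them and the mean; inconclusive means half reach 75% but not the mean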;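 further: 0% = cytokine-treated negative control wells and 100% = positive control rescue; higher means more ATP so stronger rescue from cytokine killing; wells of about 40 µL received 100 nL stock; the first replicate is given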
# rRNA inh HTS OD600: also measured in rRNA inh HTS; calls as there; OD600 change, %; measured here: OD600 growth;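 optical density of the mix in the first replicate; 0 = DMSO median and -100 = no signal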
# rRNA inh HTS RFP: second read-out of rRNA inh HTS, no call of its own (marks repeat the call); RFP signal change, %; measured here: RFP humanized mutant strains;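 first replicate; 0 = DMSO median and -100 = no signal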
# * marks the source's active call; other numbers are inactive results; i = inactive; ? = inconclusive; . = not tested or not shown. Some of the compounds tested (hit frequency here may not be typical).
SMILES,A1 inh,UCH37 inh,MLL AF4-AF9 inh,FGF22 binding,T cruzi repl,E coli growth,rRNA inh HTS,rRNA inh HTS OD600,rRNA inh HTS RFP,Beta apoptosis
CN(CC(=O)Nc1ccc(Cl)c(S(=O)(=O)N2CCOCC2)c1)C(=O)c1cccs1,-0.3,-0.7,?,i,.,0.6,-2,-2,1.7,-1
COc1ccc(F)cc1CN1CCN(CC(=O)N2CCc3ccccc32)CC1,3.0,1.6,-3.9,i,24,0.69,8,6,2.9,-1
COc1ccccc1NC(=S)NNC(=O)c1ccc(Cl)cc1Cl,0.4,1.2,.,.,-28,0.72,.,.,.,.
CCCC(=O)NC(=S)Nc1ccc(Cl)cn1,0.3,3.8,.,.,-13,0.64,.,.,.,-6
COc1ccccc1NS(=O)(=O)c1cc(NC(=O)c2ccc(NC(C)=O)cc2)ccc1N1CCOCC1,.,6.5,6.1,i,.,0.64,-41,-63,-12,.
COc1ccc(NC(=O)CNC(=O)Cn2cnc3sc(C)c(C)c3c2=O)cc1OC,-0.6,5.2,2.0,i,-5,0.68,2,4,-0.8,2
Cc1cccc(C(=O)NC(=S)NCc2ccccc2)c1,0.3,7.1,0.0,i,-8,0.67,-15,-18,-2.8,1
CCOC(=O)c1cc2n(n1)C(C(F)(F)F)CC(C)N2 (centres undefined),0.8,-3.5,.,.,3,0.67,.,.,.,-3
CCC(=O)NC(=S)Nc1ccc(S(=O)(=O)NC(C)=O)cc1,0.7,2.7,.,.,-7,0.76,.,.,.,-4
CC(C)NC(=O)CSc1nc(Cc2ccccc2)nc2ccccc12,0.7,2.7,-22,i,6,0.66,0,-5,-4.6,-7
O=C(COC(=O)c1n[nH]c2ccccc12)NCCc1ccccc1,0.3,-0.9,-72,i,.,0.66,-7,-8,5.3,0
O=C1NCCCCC1NS(=O)(=O)c1ccc(F)c(F)c1 (centres undefined),0.4,4.5,-0.8,i,-8,0.66,21,17,-0.2,-2
CCOC(=O)C[C@H]1c2cc(F)ccc2S(=O)(=O)N1C(C)(C)C,1.5,0.0,-10,i,14,.,4,-9,1.4,-9
O=C1N=C(N2CCOCC2)S/C1=C\c1cccnc1,0.0,3.7,-0.7,i,-1,0.71,7,1,0.9,-1
COc1cc(C(C(=O)NCc2ccccc2)N(Cc2ccco2)C(=O)c2cnccn2)cc(OC)c1OC (centres undefined),0.3,5.8,-0.6,i,-21,0.71,18,12,3.8,-3
CN(C(=O)c1ccc(NC(=O)Cc2ccc(NC(=O)C3CCCN(C(=O)c4ccccc4)C3)cc2)cc1)C1CCCC1 (centres undefined),.,1.5,4.1,i,.,0.65,5,2,2.2,.
O=C(N1CCOCC1)N1c2ccccc2CC(N2CCOCC2)c2ccccc21 (centres undefined),0.0,1.1,.,.,.,0.64,.,.,.,-2
O=C1C=C(NC2CCCCC2)CCC1,-0.2,0.6,-1.5,i,11,0.69,6,2,2.0,-4
Cn1c2ccccc2c2nnc(SCC(=O)Nc3cccc(O)c3)nc21,-1.9,4.4,-1.9,i,-2,0.67,9,20,3.0,.
Cc1cc(C)cc(OCc2nnc(SCC(=O)N3CCN(c4ccccc4)CC3)o2)c1,-0.6,1.7,.,.,6,0.74,.,.,.,-2
O=S1(=O)CCC(NS(=O)(=O)c2ccc3ccccc3c2)C1 (centres undefined),0.1,2.1,-4.5,i,-6,0.63,7,11,-1.3,-2
O=C(Cc1ccc(S(=O)(=O)N2CCOCC2)s1)NCC(=O)Nc1ccccc1Br,0.1,.,-0.5,i,-2,.,3,2,3.2,0
COc1cccc(C(=O)CSc2nc3ccccc3n2CC(=O)N2CCOCC2)c1,-0.8,5.3,.,.,-17,0.71,.,.,.,.
Cc1ccc(C)c(NC(=O)CN(C)C(=O)c2cccc(N3C(=O)CCC3=O)c2)c1,-0.3,4.9,0.1,i,-5,0.69,10,20,-0.9,.
CC(=O)c1cccc(NCC(=O)c2ccc(C)c([N+](=O)[O-])c2)c1,-0.5,4.7,1.3,i,-9,0.67,4,7,2.9,5
Cc1cc(OCC(=O)NCCCn2ccnc2)c2c(C)c(C)c(=O)oc2c1,0.4,-108,-1.7,i,17,0.66,2,3,-0.1,.
CC(C)C(NC(=O)C12CC3CC(CC(C3)C1)C2)C(=O)N/N=C/C1=C(N2CCOCC2)C(=C\c2cccc([N+](=O)[O-])c2)/CC1 (centres undefined),1.8,.,2.0,i,56*,.,-2,9,-5.3,-6
Cc1ccc(S(=O)(=O)NC(C)(C)CSc2nncn2N)cc1,0.2,3.9,.,.,0,0.77,.,.,.,2
CCOC(=O)c1ccc(N2C(=O)CC(SCC(=O)Nc3ccc(S(N)(=O)=O)cc3)C2=O)cc1 (centres undefined),0.6,8.0,-4.9,i,17,0.68,7,10,-0.8,2
Cc1cccc(S(=O)(=O)Nc2nc3ccccc3nc2OC(C)C)c1,1.4,1.7,-0.9,i,3,0.68,7,17,-0.1,9

# Looked up above.
# `COc1cccc(C(=O)CSc2nc3ccccc3n2CC(=O)N2CCOCC2)c1` @ A1 inh = -0.8
# `Cc1ccc(S(=O)(=O)NC(C)(C)CSc2nncn2N)cc1` @ Beta apoptosis = 2

# More structures follow:
SMILES,A1 inh,UCH37 inh,MLL AF4-AF9 inh,FGF22 binding,T cruzi repl,E coli growth,rRNA inh HTS,rRNA inh HTS OD600,rRNA inh HTS RFP,Beta apoptosis
Cc1ccccc1CC(=O)Nc1ccc2c(c1)CCC2,0.9,1.9,0.2,.,-11,0.73,13,11,-4.0,6
CC(C)(C)C1=C[C@@H](CO)C[C@@H](CO)C1,-0.4,1.7,.,.,-10,0.72,.,.,.,-2
N#Cc1nc(-c2ccco2)oc1NCc1ccccc1Cl,-0.4,-8.2,-0.4,i,2,0.69,-27*,-12*,4.9*,.
O=C(O)c1ccc(Cl)c(S(=O)(=O)NCc2cccnc2)c1,0.4,0.1,1.0,i,-9,0.68,13,11,-1.3,2
O=C(CC1C(=O)CCCC1=O)c1ccccc1,-0.8,0.5,-0.4,i,2,0.63,0,6,-2.4,-19
O=C(Nc1cc([N+](=O)[O-])ccc1O)NC1CCS(=O)(=O)C1 (centres undefined),1.1,11,-2.3,i,.,0.67,13,14,2.6,-2
O=C(CS(=O)Cc1ccccc1Cl)Nc1ccccc1Cl (centres undefined),0.3,0.1,-9.0,i,4,0.72,-10,-24,-1.3,1
CCOC(=O)c1ccccc1NC(=O)CCNC(=O)Cn1cnc2ccccc2c1=O,-0.6,1.8,.,.,4,0.69,.,.,.,-1
CCn1nnnc1NCc1ccc(N2CCCC2)cc1,-0.3,3.5,.,.,22,0.67,.,.,.,4
Cc1ccccc1CSc1nnc(-c2cnccn2)n1C,0.7,3.0,-3.6,i,-9,0.65,-6,-14,-3.1,4
COc1ccccc1-c1nnc(SCC(=O)NC2CCS(=O)(=O)C2)n1CCc1ccccc1 (centres undefined),0.7,1.9,-0.1,i,15,0.71,0,-6,0.2,-5
C=CCc1cccc(Cl)c1OCCON1C(=O)CCC1=O,0.8,3.4,.,.,-8,0.65,.,.,.,4
COc1cccc(NC(=S)NNC(=O)Cn2nc(C(F)F)cc2C(F)F)c1,0.8,1.0,-0.5,i,1,0.68,6,5,0.6,2
Cc1cc(C)n(CC(O)Cn2c3ccc(Br)cc3c3cc(Br)ccc32)c(=O)n1 (centres undefined),0.1,-3.1,.,.,30,0.7,.,.,.,20
O=C(c1ccc(Cl)c(Cl)c1)c1cc(-c2ccccn2)c(N2CCOCC2)s1,0.9,-9.4,.,.,-3,0.69,.,.,.,10
Cc1cc(NCCN2CCOCC2)n2ncc(-c3ccccc3)c2n1,-1.2,-17,.,.,9,0.72,.,.,.,-7
Cc1ccnc(NC(=O)Cc2ccc(-c3ccccc3)cc2)c1,0.6,-20,-2.9,i,16,0.69,7,-9,6.4,71
CC(C)c1ccccc1N=C1SCCCN1C(=O)c1cccc(N2C(=O)CCC2=O)c1,-0.5,1.5,-7.2,i,-14,0.66,0,8,-0.5,3
Cc1cccc(NC(=O)CN2C(=S)NC(C)(C)CC2C)c1 (centres undefined),-0.3,0.6,.,.,-10,0.67,.,.,.,-4
COc1ccc(/C=N/NC(=O)c2ccncc2)cc1CN1CCOCC1,0.1,.,.,i,-8,.,5,8,0.2,4
COC(=O)[C@@H](Cc1c[nH]c2ccccc12)NC(=O)c1ccc2c(c1)OCO2,0.6,6.5,-1.2,i,0,0.65,-2,1,0.2,0
CN1CCN(c2nc3c(c(=O)n(C)c(=O)n3C)n2Cc2cccc3ccccc23)CC1,-0.7,0.3,.,.,33,0.71,.,.,.,-1
O=C1CSC(c2ccc(Cl)cc2Cl)N1c1ccccn1 (centres undefined),-0.3,-3.2,-1.9,i,-5,0.7,-9,-14,-1.7,-3
O=C(CN1CCN(c2ccc([N+](=O)[O-])cc2Cl)CC1)N1CCOCC1,0.0,7.8,3.3,i,-1,0.7,.,.,.,-3
NC(c1ccccc1)c1ccncc1 (centres undefined),-0.8,1.6,0.5,i,-7,0.68,20,15,1.7,.
O=C(CC(SCCO)c1ccc([N+](=O)[O-])cc1)c1ccco1 (centres undefined),?,3.2,2.3,i,15,0.64,-6,8,-4.1,5
COCC(=O)Nc1ccc2c(c1)OCO2,0.5,2.1,-2.1,i,-7,0.7,.,.,.,-9
CCOC(=O)c1sc(NC(=S)NC(=O)CC(C)C)cc1C,-1.1,6.8,.,.,0,0.69,.,.,.,-1
OC(CN1CCCCC1)c1ccc2c3c(cccc13)CC2 (centres undefined),.,3.7,12,i,.,0.64,3,-7,4.9,.
CCC(C)NC(=O)c1cccc(OCc2c(C)noc2C)c1 (centres undefined),0.8,0.4,-3.1,i,-13,0.7,2,3,1.1,7
Cc1ccc(N2C(=O)N(CC(=O)Nc3ccc(C)cc3C)C(=O)C2C)cc1 (centres undefined),2.2,2.1,-0.3,.,-4,0.65,10,9,1.6,6
CCN(c1cccc2ccccc12)S(=O)(=O)c1ccc(Cl)nc1,0.9,0.1,-26,i,-3,0.66,-22*,-11*,5.6*,-5
CCOc1ccc(N(C)S(=O)(=O)c2ccc(C)c(C(=O)NCc3cccs3)c2)cc1,0.5,1.2,0.5,i,.,0.65,-9,-25,-3.5,2
CCCCCCOc1ccc(C(CC(=O)NC)C(=O)O)cc1 (centres undefined),-0.1,3.2,-0.2,i,9,0.69,3,17,6.9,-5
Cc1nn(C)c(Nc2ccc(Br)cc2)c1Br,-0.1,2.1,1.6,i,-11,0.65,-52,-79,-16,58
CN(C(=O)C1CCCCC1)C1CCS(=O)(=O)C1 (centres undefined),0.2,1.3,5.0,i,-1,0.68,7,6,-0.5,-4
